# High-throughput results from PubChem BioAssay.
# MgrA-DNA mod = alters Staphylococcus aureus MgrA binding to DNA; fluorescence polarization; inhibition, %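 (about 10 µg/mL by stock and volumes)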; hit rate 0.13% among 84,000;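 active = above 50% in either of two replicates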;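 also: 0% = protein plus DNA without compound and 100% = DNA alone without protein; higher means less MgrA bound to DNA so lower polarization; one replicate is shown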
# S aureus helic = blocks Staphylococcus aureus DNA helicase | AID 485395 | purified S. aureus helicase, fluorescence unwinding assay; about half of the hits fall short of the stated cut | inhibition, %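 (tested at about 80 µM)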 | hit rate 0.05% among 120,000;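 active = both duplicates at 50% or more, or one of them with a favoured structure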;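 also: 0% = mean of negative control wells and 100% = mean of positive control wells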
# * marks the source's active call; other numbers are inactive results; x = no result given; & = joins results of further samples.
mol | MgrA-DNA mod | S aureus helic
COc1ccccc1NC(=O)N1C(C(=O)NCc2ccc(F)cc2)CSC1c1ccccc1C (stereo not drawn) | 0.4 | 15
O=C(Nc1ccccc1)OC1C2CCCC1C(N1CCCCC1)CC2 (stereo not drawn) | -1.0 | 7
CCC(C(=O)NCc1ccco1)n1c(SCc2ccc(F)cc2)nc2cccnc21 (stereo not drawn) | -2.4 | 7
Cc1ccc(C(c2sc3ncnn3c2O)N2CCN(CCO)CC2)cc1 (stereo not drawn) | x | -2
Cc1cc(Br)c(OCC(=O)NN)c2c1CCC2 | 0.1 | x
COC(=O)c1ccc(C2OCC(C)(C)CO2)cc1 | 1.9 | 15
CS/C(=C\C(=O)c1cccs1)NCc1ccccc1 | -2.6 | x
Cc1cc(OCc2c(C)c(C)c(C)c(C)c2C)c2cc(Cl)ccc2n1 | 0.3 | x
NC(=S)N/N=C/c1ccc([N+](=O)[O-])s1 | -2.5 | x
CCc1ccc(-c2nc3c(C#N)c[nH]n3c2NC2CCCCC2)cc1 | -0.2 | -3
CCOCCOC(=O)C1=C(C)NC(=O)NC1c1ccc(OCc2ccccc2)cc1 (stereo not drawn) | -0.6 | x
O=c1c(C=Nc2ccccc2)c(O)c2c(n1-c1ccccc1)CCCC2 | -0.4 | 8
C=CCN1C(=O)/C(=C/c2c(N3CCCCC3)nc3ccccn3c2=O)SC1=S | 20 | -101
COC(CNS(=O)(=O)c1cn(C)c(=O)n(C)c1=O)OC | x | -18
Cc1ccc2oc(=O)c3cc(C(=O)NCCN4CCc5ccccc5C4)sc3c2c1 | x | 4
CC1(C)CC2CC(C)(CN2C(=O)COCc2cc(-c3ccco3)on2)C1 (stereo not drawn) | x | -125
Cc1ccccc1-c1nc(CS(=O)(=O)CC(=O)N(C)Cc2ccccc2)c(C)o1 | x | 5
COC(=O)c1ccc(-c2ccco2)n1CC(=O)NCc1ccc(Cl)cc1 | x | 14
O=c1[nH]c2ccccc2c(=O)n1CCSc1ccccc1 | 3.7 | x
COc1ccc(S(=O)(=O)NCc2ccc(C(=O)NC3CCCCC3C)cc2)cc1 (stereo not drawn) | 2.6 | 6
Cc1ccc(NC(=O)COC(=O)CCc2ccco2)cc1C | x | -3
Cc1ccc(-c2csc(NC(=O)Nc3ccccc3)n2)cc1 | -3.9 | 7
Cc1ccc(S(=O)(=O)N2CCCC2C(=O)Nc2ccc(C)cc2C)cc1 (stereo not drawn) | 3.1 | 1
O=C(N/N=C/c1ccc(N2CCCCC2)o1)c1ccco1 | 8.2 | 1
O=c1ccc(-c2ccncc2)n[nH]1 | 1.2 | x
CCOC(=S)SCc1cn2ccccc2n1 | -0.6 | -3
Fc1ccc(C2Nc3c(ccc(Cl)c3Cl)C3C=CCC32)cc1 (stereo not drawn) | 1.3 | x
N#CCn1ccccc1=O | x | 9
O=C(NCc1ccc2c(c1)OCO2)C1CC(=O)N(C2CCCCC2)C1 (stereo not drawn) | x | 6
O=C(O)c1cc(S(=O)(=O)NCCN2CCOCC2)ccc1O | x | -8
O=C(NCc1cccc(CNC(=O)NCc2ccco2)c1)NCc1ccco1 | x | 7
COc1cc(NC(=O)CCc2ccccc2)nc(OC)n1 | x | 10
CCOC(=O)c1c(NC(=O)CN2C(=O)/C(=C/c3ccc(OC)c(OC)c3)SC2=S)sc2c1CCCC2 | 4.9 | x
CC(=O)Nc1ccc(N2Cc3ccccc3C2)cc1 | 2.5 | 10
Cc1ccc(C2CC(=O)NC(SCc3ccccc3)=C2C#N)o1 (stereo not drawn) | x | -24
N#CC(C(=O)c1cccc(C(F)(F)F)c1)=C1SCCCCS1 | -0.4 | x

# Some of these compounds in order of their number in MgrA-DNA mod, low to high.
mol | MgrA-DNA mod | S aureus helic
CS/C(=C\C(=O)c1cccs1)NCc1ccccc1 | -2.6 | x
O=C(Nc1ccccc1)OC1C2CCCC1C(N1CCCCC1)CC2 (stereo not drawn) | -1.0 | 7
CCOC(=S)SCc1cn2ccccc2n1 | -0.6 | -3
O=c1c(C=Nc2ccccc2)c(O)c2c(n1-c1ccccc1)CCCC2 | -0.4 | 8
Cc1cc(Br)c(OCC(=O)NN)c2c1CCC2 | 0.1 | x
Cc1cc(OCc2c(C)c(C)c(C)c(C)c2C)c2cc(Cl)ccc2n1 | 0.3 | x
O=C(N/N=C/c1ccc(N2CCCCC2)o1)c1ccco1 | 8.2 | 1

# More records follow:
mol | MgrA-DNA mod | S aureus helic
O=C(O)C(Cc1ccc(O)cc1)N=Cc1cccc2ccccc12 (stereo not drawn) | 30 | 14
NC(=O)c1ccsc1NC(=O)c1ccc2ncsc2c1 | x | 20
CCC(=O)Nc1ccc(C(=O)Nc2c[nH]c(=O)[nH]c2=O)cc1 | 0.1 | -5
CC(CCc1ccccc1)NC(=O)C(C)N1CCNC(=O)C1 (stereo not drawn) | x | 12
N#Cc1nc(-c2ccccc2F)oc1NC1CCCCC1 | x | 11
CC(C)NC(=O)c1cc2c(s1)-c1ccccc1OC2 | x | 1
O=[N+]([O-])c1ccccc1Nc1nc(OCC(F)(F)F)nc(OCC(F)(F)F)n1 | 0.9 | x
Cc1ccc(S(=O)(=O)N2CCC(O)CC2C)cc1 (stereo not drawn) | 0.0 | 0
O=C1OC(c2ccc(Br)cc2)=N/C1=C\N1CCCCC1 | x | -20
CC(C)NCC(O)COc1ccc(S(=O)(=O)N2CCOCC2)cc1 (stereo not drawn) | x | 5
O=C(OCCOc1cccc(Cl)c1)C1CCN(S(=O)(=O)c2cccs2)CC1 | x | 16
Cc1cc(C)c(C(N)=O)c(=O)[nH]1 | x | 9
NC(=O)c1cccc(N=Cc2ccc3ccccc3c2)c1 | 0.3 | 2
O=C(O)C(Cc1cccs1)c1ccccc1 (stereo not drawn) | x | 1
CCCCN1C(=O)c2ccccc2C1C(=O)NC1CCCC1 (stereo not drawn) | x | -14
CC(=O)N/C(=C\c1ccc(OC(F)(F)F)cc1)C(=O)O | -3.5 | x
Cc1cc(=O)c2cc(N)ccc2[nH]1 | x | -19
CN(C)S(=O)(=O)c1cccc(COC(=O)/C(=C/c2cccs2)c2cccs2)c1 | x | 0
Cc1ccccc1NC(=O)C1c2ccccc2C(=O)N2CCc3ccccc3C12 (stereo not drawn) | x | -5
Cc1ccc(S(=O)(=O)Oc2ccc(Oc3ccccc3)cc2)cc1 | 4.0 | x
COc1ccccc1NC(=S)NC(c1ccccc1)c1ccccc1 | -2.1 | x
CC(=O)O[C@]1(C(=O)CO)CCC2C3CCC4=CC(=O)CCC4(C)C3C(O)CC21C (stereo partly drawn) | x | -2
c1cnc2c(OCc3nc4ccccc4[nH]3)cccc2c1 | -4.3 | 8
COc1ccc(CC(=O)N2CCc3ccccc3C2)cc1 | 1.6 | 3

# Continued.
SMILES,MgrA-DNA mod,S aureus helic
COc1ccc(S(=O)(=O)N2CCN(CCN3C(=O)c4cccc5cccc(c45)C3=O)CC2)cc1,-0.5,x
NNC(=O)CC1=NNC(=O)C1,x,-1
CCOC(=O)C1=C(C)NC2=C(C(=O)CC(c3ccc(Cl)cc3)C2)C1c1cc(OC)c(OC)c(OC)c1 (stereo not drawn),2.5,x
O=C(Cc1nnc(-c2ccc(Br)cc2)o1)NCCc1ccccc1,x,-34
COc1cccc2c1OC1(CCCCC1)N1N=C(c3ccco3)CC21 (stereo not drawn),-0.5,-2
C=C1CC[C@H](O)C/C1=C/C=C1\CCC[C@]2(C)[C@@H]([C@H](C)CCCC(C)(C)O)CC[C@@H]12,-1.5,x
Cc1cc(C)n2cc(CSC(C)C(=O)O)nc2n1 (stereo not drawn),x,4
CCc1nnc(SCC(=O)N(CC)c2ccccc2)c2cc3occc3n12,-0.2,8
O=C(O)CCC(=O)Nc1nccs1,x,10&-5
O=c1oc(-c2cccnc2)nc2sc3c(c12)CCCCC3,-1.9,13
COc1ccccc1CC(=O)Nc1nncs1,3.9,-20
O=C(CC1CCCCC1)Nc1cccnc1,-2.1,7
CC(C(=O)Nc1ccc2c(c1)OCO2)N(C)CC1COc2ccccc2O1 (stereo not drawn),x,-17
COc1cccc(Nc2nc(C3(C)CC4(CC(C)OC4=O)C(=O)O3)cs2)c1 (stereo not drawn),-1.4,-4
CN(C)c1ccsc1C(=O)NN,2.5,x
N#CCC(=O)Nc1ccc(C(=O)O)cc1,1.5,-20
O=C(COC(=O)c1ccco1)NC(c1ccccc1)c1ccccc1,x,3
CCc1n[nH]c(=O)c2cc3cc(OC)ccc3n12,x,-16
COC(=O)c1cc(OC)c(OC)cc1NCC(=O)Nc1ccc(C)cc1,x,11
O=S(=O)(Nc1cccc(-c2ncon2)c1)c1ccc(F)cc1F,0.8,x
CCSc1nc2c(c(=O)n1Cc1ccccc1)SC(C)C2 (stereo not drawn),x,8
Cc1ccccc1-c1noc(-c2ccccc2C)n1,x,1
O=C(Nc1ccccc1)Nc1cccc(Cl)c1,0.2,6
CC(NC(=O)CC1=NS(=O)(=O)c2ccccc2N1)c1ccccc1 (stereo not drawn),x,4
CCC(Sc1nnc2c3ccccc3n(CC)c2n1)C(=O)NC(C)c1ccccc1 (stereo not drawn),-2.9,11
CC1(C)Cc2c(c(N3CCOCC3)nc3sc4c(ncn5c(SCC(=O)NCc6ccco6)nnc45)c23)CO1,12,-3
O=S(=O)(c1cccc(C(F)(F)F)c1)N1CCCN(CCc2ccccc2)CC1,x,-10
O=S(=O)(c1ccsc1)c1ccsc1,-0.8,6
COc1ccccc1NC(=O)CSCC(N)=O,6.2,29
COc1ccc(Cl)cc1S(=O)(=O)N(C)CC(N)=O,-0.1,-10
O=S(=O)(NCc1ccco1)c1cccc(S(=O)(=O)N2CCCCC2)c1,15,5
O=C(CSc1nccc(-c2ccco2)n1)Nc1ccccc1Cl,-0.6,x
CCc1ccc(Nc2ncnc3c2cnn3C)cc1,x,3
O=C(CC1(O)C(=O)Nc2ccccc21)CC1(O)C(=O)Nc2ccccc21 (stereo not drawn),1.8,10
Cc1ccc(/C=C/C(=O)OCC(=O)c2cc(C)n(CC3COc4ccccc4O3)c2C)o1 (stereo not drawn),x,-14
CC(C)NC(=O)n1nccc1-c1cc(-c2ccccc2)no1,-2.6,x

# Compound profiles, as listed above:
# Shown for CCc1ccc(Nc2ncnc3c2cnn3C)cc1 → MgrA-DNA mod = x; S aureus helic = 3
# Shown for Cc1ccc(/C=C/C(=O)OCC(=O)c2cc(C)n(CC3COc4ccccc4O3)c2C)o1 (stereo not drawn) → MgrA-DNA mod = x; S aureus helic = -14

# Continuation:
SMILES,MgrA-DNA mod,S aureus helic
CC(/C=C/c1ccco1)=N\NC(=O)Cc1cccc2ccccc12,5.7,14
CCc1ccc(N2C(=O)N(CC(=O)N3CCCCCC3)c3ccccc3S2(=O)=O)cc1,x,0
C1CNCCN1,0.0,x
COc1ccc(CSC2=NCN(C3CC(C)CC(C)(C)C3)CN2)cc1 (stereo not drawn),-3.0,x
COC(=O)c1ccc(CC(C#N)(Cc2ccc(C(=O)OC)o2)C(=O)Nc2ccc(OC)c(OC)c2)o1,x,0
CCOC(=O)C1=C(C)NC(=O)NC1C1CC=CCC1 (stereo not drawn),1.9,1
O=c1/c(=C\c2ccc(OCc3ccc(Cl)cc3Cl)cc2)sc2nc3ccccc3n12,0.4,x
C=CCc1cccc(C=NC(Cc2cnc[nH]2)C(=O)O)c1O (stereo not drawn),-4.2,11
COc1cc(N=CC2=C(O)c3ccccc3C2=O)cc(OC)c1,2.6,5
COc1cc(C=NCCN=Cc2ccc(O)c(OC)c2)ccc1O,-0.7,12
Cc1[nH]c2ccccc2c(=O)c1Br,0.5,-1
COC(=O)c1c(-c2c(Cl)cccc2Cl)noc1C(=O)N/N=C/c1ccccn1,x,-12
C=CCn1c(SCC2CNC(c3ccc(N(C)C)cc3)O2)nnc1C1CCCCC1 (stereo not drawn),x,-2
COc1cccc(CNC(=O)Cc2cccc(OC)c2)c1,x,0
CCCN1CCN(C(=O)c2c(C)nn(Cc3ccc(C)cc3)c2Cl)CC1,x,-3
CCc1cc2c(NCC3CCCO3)nc(C)nc2s1 (stereo not drawn),-3.1,-5
C=CCN1C(=O)N(c2ccccc2)C(=O)C1CC(=O)Nc1ccc(CC)cc1 (stereo not drawn),x,19
C=CCNC(=O)c1ccc2c(c1)C1C3CCC(C3)C1C(c1ccccc1)N2 (stereo not drawn),1.2,6
COCn1nnc2ccccc21,0.2,x
O=C(Nc1ccccc1C(=O)O)c1ccccc1,x,5
O=C(/C=C/c1ccc(S(=O)(=O)N2CCCCCC2)cc1)N1CCN(C(=O)c2ccccc2)CC1,x,13
Cc1ccc(/C=C/C(=O)Nc2sc3c(c2C#N)CCCC3)cc1,-9.8,0
O=C(CC(NCc1ccco1)C(=O)O)Nc1cccc(Cl)c1 (stereo not drawn),x,10
CC(C)N(C(=O)C[n+]1cccc(/C=N/O)c1)C(C)C,x,-9
CCOC(=O)c1sc2nc(CN3CCC(C)CC3)[nH]c(=O)c2c1C,x,-18
COc1ccc(NC(=O)CSc2nc3c(cc2C#N)CCCCC3)cc1,-1.3,x
Cc1ccc(-c2cn3c(n2)CCC3)cc1,0.6,-24
S=c1[nH]c2cc(Cl)c3cccnc3c2o1,14,-14
CCOc1ccc(OCC)c(NC(=O)CN(C)S(=O)(=O)c2ccc3nc(C)sc3c2)c1,x,39
CC(C)CC(=O)NCc1ccc2[nH]c3c(c2c1)CCCC3,x,10
CC(C)S(=O)(=O)/C(C#N)=C/NN1CCOCC1,-0.6,x

# Pulled by compound from the entries so far:
SMILES,MgrA-DNA mod,S aureus helic
S=c1[nH]c2cc(Cl)c3cccnc3c2o1,14,-14
Cc1ccc(-c2cn3c(n2)CCC3)cc1,0.6,-24
CCOc1ccc(OCC)c(NC(=O)CN(C)S(=O)(=O)c2ccc3nc(C)sc3c2)c1,x,39
CC(C)CC(=O)NCc1ccc2[nH]c3c(c2c1)CCCC3,x,10

# These rows are one share of the data; the hit share may differ from the screen's.
